TRPV1 PAM = HTS Assay for Compounds that Act as Potentiators of the Vanilloid Receptor 1; Transient receptor potential cation channel subfamily V member 1 (Homo sapiens), Q8NER1; TRPV1-expressing cells, Fluo-8 calcium influx, capsaicin EC20 potentiation; host cell line not named in the record; control for the full effect not named in the record; potentiation, % at 8.33 µM; actives 0.02% (n = 320,000); active means potentiation above 80%; inconclusive means 30% to 80%; inactive means below 30%; note: 0% is about no effect
Target sequence (Q8NER1 whole entry, looked up): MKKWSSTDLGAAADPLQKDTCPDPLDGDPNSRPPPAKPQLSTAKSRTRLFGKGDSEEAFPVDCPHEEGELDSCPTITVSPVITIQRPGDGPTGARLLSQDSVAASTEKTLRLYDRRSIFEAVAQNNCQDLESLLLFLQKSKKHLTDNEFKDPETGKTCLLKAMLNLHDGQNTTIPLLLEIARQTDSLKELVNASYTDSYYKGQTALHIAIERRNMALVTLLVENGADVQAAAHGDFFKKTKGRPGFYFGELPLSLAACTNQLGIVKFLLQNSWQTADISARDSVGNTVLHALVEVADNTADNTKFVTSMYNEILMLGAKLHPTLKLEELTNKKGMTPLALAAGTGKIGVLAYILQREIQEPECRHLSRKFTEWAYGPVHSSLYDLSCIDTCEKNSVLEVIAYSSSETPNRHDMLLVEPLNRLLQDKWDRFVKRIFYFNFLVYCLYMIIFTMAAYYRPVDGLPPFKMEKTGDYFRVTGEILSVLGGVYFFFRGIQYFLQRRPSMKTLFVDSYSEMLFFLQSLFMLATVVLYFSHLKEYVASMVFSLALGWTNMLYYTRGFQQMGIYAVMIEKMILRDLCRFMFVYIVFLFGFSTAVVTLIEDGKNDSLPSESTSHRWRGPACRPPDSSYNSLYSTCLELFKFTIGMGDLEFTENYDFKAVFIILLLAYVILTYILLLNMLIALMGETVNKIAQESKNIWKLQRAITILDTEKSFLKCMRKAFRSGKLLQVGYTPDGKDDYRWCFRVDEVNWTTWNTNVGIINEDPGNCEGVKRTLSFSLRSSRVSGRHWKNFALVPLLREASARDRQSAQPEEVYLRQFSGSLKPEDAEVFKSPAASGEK
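Fluo-8 calcium influx in TRPV1-expressing cells, kinetic read (ex 480/em 520 nm). Compound added and read 3 min for agonist activity, followed by capsaicin at EC20 final and 2 min further read for enhancement.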
ClpP mod = qHTS Assay for Activators of ClpP; actives 1.9% (n = 340,000); purified B. subtilis ClpP, FRET peptide cleavage, 20 min; AID 651965, 2013; Potency, µM (titrated, usually from 57.5 µM), inactives show at the top dose activity change, negative = active; active = well fitted falling curve with a large enough effect; inconclusive = small, poorly fitted or top-dose-only effect; inactive = no such curve, though single readings can be large or run the other way; note: potency is the fitted concentration of half-maximal effect; the source files actives as falling curves though it sought activators and does not explain the sign; nearly all actives have a fitted effect of over 65% in size; many hits overshoot -100%
Target sequence (P80244 whole entry, looked up): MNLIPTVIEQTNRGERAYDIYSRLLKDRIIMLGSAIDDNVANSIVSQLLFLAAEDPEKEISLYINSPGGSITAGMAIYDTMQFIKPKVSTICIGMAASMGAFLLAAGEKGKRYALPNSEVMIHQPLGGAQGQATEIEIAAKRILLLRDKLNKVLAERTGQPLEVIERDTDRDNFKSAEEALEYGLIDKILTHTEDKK
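ClpP 10 microg/mL final, pH 8 Tris/KCl buffer with BSA, glycerol, Tween-20; compound pinned in; FRET-FV substrate; RT 20 min; Ex320/Em430; ΔFRET vs ADEP 5.8 microM, DMSO, no enzyme.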
gsp agonist = qHTS for Agonist of gsp, the Etiologic Mutation Responsible for Fibrous Dysplasia/McCune-Albright Syndrome: qHTS | gsp mutant cells, cAMP HTRF, 30 min; control for the full effect not named in the record | Potency, µM (series often up to 76.9 µM), for inactives: top-dose activation (cAMP increase), hits mostly activators | actives 0.13% (n = 340,000) | AID 624287, 2012; active = well fitted activation curve with a large enough effect; inconclusive = small, poorly fitted or top-dose-only effect, or another doubt; inactive = no such curve, though single readings can be large or run the other way; cell line not stated here;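 note: phosphodiesterase inhibitor Ro 20-1724 added with compounds to block cAMP breakdown; potency is the fitted concentration of half-maximal effect; nearly all actives have a fitted effect of over 60% in size; about a fifth of the inactives were tested at one dose only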
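Cells in DMEM/10% FBS with G418 were pretreated with compounds in DMSO plus […] (300 uM stock) for 30 min at 37C. cAMP was measured by HTRF (cAMP-d2 plus anti-cAMP antibody-K) after 30 min at room temperature.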
Sfp PPTase inh = qHTS Assay for Inhibitors of Bacillus subtilis Sfp phosphopantetheinyl transferase (PPTase). Biochemical Sfp PPTase activity, qHTS. Potency, µM, for inactives: max response, negative = inhibition, usual class: inhibitors. actives 3.5% (n = 310,000). AID 1490, 2009; active = well fitted inhibition curve with a large enough effect; inconclusive = small, poorly fitted or top-dose-only effect, or another doubt; inactive = no such curve, though single readings can be large or run the other way;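 note: the enzyme is Sfp with the accession as filed and its product quenches rhodamine fluorescence; potency is the fitted concentration of half-maximal effect; 0% = enzyme reaction without inhibitor and -100% = no enzyme wells; top concentration of the series not given in the record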
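Sfp 15 nM + cpd, 15 min RT; start w/ rhodamine-CoA 5 uM, BHQ-2-YbbR 12.5 uM (final); 50 mM Hepes pH 7.6, 10 mM MgCl2, 0.01% NP-40, 0.01% BSA; read 525/598 nm at 0 and 30 min.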
gsp antag = qHTS for Antagonists of gsp, the Etiologic Mutation Responsible for Fibrous Dysplasia/McCune-Albright Syndrome: qHTS; AID 624288, 2012; actives 0.4% (n = 340,000); Potency, µM (series often up to 76.9 µM), inactives show at the top dose activity change, negative = inhibition, actives largely listed as inhibitors; gsp-mutant cells, cAMP HTRF, 30 min; control for the full effect not named in the record; active = falling curve of any shape with a large fitted effect; inconclusive = falling curve, mostly with a smaller effect; inactive = flat or rising curve; cell line not stated here;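 note: intracellular cAMP measured with PDE inhibitor Ro 20-1724 present during compound exposure; potency is the fitted concentration of half-maximal effect; % is set by controls: 0 for no effect and ±100 for the full control effect; nearly all actives have a fitted effect of over 65% in size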
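Cells in G418 medium, seeded 16-24 h, 37C; buffer exchange to DPBS + 1 mM CaCl2, 0.5 mM MgCl2, 0.05% BSA; cpds in DMSO + […] (300 uM stock), 30 min 37C; HTRF cAMP detection.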
D2 potentiator = Beta-Arrestin HTS for Positive Allosteric Modulators of the Human D2 Dopamine Receptor: Potentiators | potentiation, % (no concentration beside the values) | actives 0.23% (n = 360,000) | D(2) dopamine receptor (Homo sapiens), P14416 | AID 624464, 2012 | DiscoveRx D2 beta-arrestin cells, luminescence, 90 min; 100% = 57 uM dopamine signal; active = potentiation of 50% or more; inconclusive = 30% to 50%; inactive = 30% or less;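 note: compound concentration not given in the record; tested on top of an EC20 dose of dopamine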
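D2 cells co-treated with compound plus 50 nM dopamine (EC20) for 90 min at 37 deg C to detect potentiation. Beta-arrestin recruitment was read as enzyme-fragment luminescence after 1 h at ambient temperature. Full response was set by 57 uM dopamine.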
Menin MLL FP FL = qHTS Assay for Inhibitors Targeting the Menin-MLL Interaction in MLL Related Leukemias: Competition With Fluorescein Labeled MLL-derived Peptide; 290,000 tested, under 10 active; Fluorescence polarization, fluorescein-MLL peptide displacement from menin; FP activity change, % at 61.4 µM; AID 1766, 2009; inconclusive = falling polarisation curve, or a change in total fluorescence; inactive = total fluorescence flat and polarisation flat or rising; no compound was filed as active; the % refers to the polarisation; negative = inhibition;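 note: % of control where 0% means no effect; inhibitors lower the polarisation; unlabelled MLL peptide was the positive control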
Numbers without * were called inactive; ? = inconclusive; / = not tested or not shown; [ ] = dose if it differs, or a comment.

compound	TRPV1 PAM	ClpP mod	gsp agonist	Sfp PPTase inh	gsp antag	D2 potentiator	Menin MLL FP FL
O=C(CN1C(=O)CCC1=O)Nc1nc(-c2ccc(Cl)s2)cs1	-12	-2.4%	13%[15.4 µM]	-11%	2%	-4	8.3
COc1ccc(C(=O)NCC(=O)OCC(=O)NCc2cccs2)cc1	-2	1.7%	9%	16%	4%	-12	0.7
Cn1cccc1C1C=C(c2ccc(C(C)(C)C)cc2)Nc2ncnn21 (stereo unspecified)	/	-25%	/	/	-15%	-15	/
Cc1cc(C)c(C#N)c(Nc2ccccc2F)n1	-30	-3.4%	9%	26%	-12%	-1	3.5
CCOC(=O)C1(CCOc2ccccc2)CCN(Cc2ccc(O)c(OCC)c2)CC1	27	/	-68%[inhibitor]	10%	1%	-26	0.5
CC(=O)Nc1ccc(NC(=O)Cn2ccc([N+](=O)[O-])n2)cc1	1	/	4%[15.4 µM]	8%	1%	-4	1.5
CC(OC(=O)CN(C)S(=O)(=O)c1ccc(Cl)cc1)C(=O)Nc1cccc(Cl)c1 (stereo unspecified)	-4	0.5%	8%	16%	40µM*	5	5.8
CCC(CO)NCc1ccc(Br)cc1 (stereo unspecified)	3	1.6%	-58%[inhibitor]	-11%	8%	-5	-1.9
Cc1ccc(N2CCN(CCc3nc4cc(NC(=O)c5ccco5)ccc4n3C)CC2)cc1	8	-1.0%	-22%	24%	-2%	-20	-2.0
COC(c1ccccc1)c1nnc(CCC(=O)N2CCN(Cc3cccs3)CC2)o1 (stereo unspecified)	-15	1.1%	?	9%	8%	-5	-3.9
CCO[C@@H]1OC(C(=O)NC2CC2)=C[C@H](C2CCCCC2)[C@H]1CCCO	/	0.1%	/	/	-2%	-36	/
CC(C)c1ccc(S(=O)(=O)N2CCN(C(=O)c3cc(-c4ccccc4)n[nH]3)CC2)cc1	18	3.7%	-14%	5%	-6%	0	-0.6
CCCN1CCC(N2CCN(c3ccc([N+](=O)[O-])cc3)CC2)CC1	-25	0.5%	-31%[inhibitor]	-24%	0%	-9	0.4
O=S(=O)([O-])CCC[n+]1ccc(Oc2ccccc2)cc1	6	-1.4%	?	-6%	2%	10	-1.0
O=[N+]([O-])c1cc([N+](=O)[O-])c(Oc2cccc(Cl)c2Cl)cc1NN1CCCCC1	8	-0.4%	-34%	1%	2%	-4	-6.0
CC(C)Oc1cccc(C(=O)NC(=S)Nc2ccccc2N2CCOCC2)c1	4	1.3%	23%	9%	-4%	5	/
NC(=O)CSc1nc2c(sc(=S)n2-c2ccccc2)c(=O)[nH]1	6	/	-18%	-12%	-1%	-2	2.2
CCOc1ccc(NC(=O)CSc2nc3ccsc3c(=O)n2Cc2ccc(C(=O)O)cc2)cc1	/	-1.1%	17%	/	/	-4	/
O=C(NCc1n[nH]c(=S)n1-c1cccc(Cl)c1)c1cccs1	-13	/	-3%[15.4 µM]	12%	/	-15	0.7
C=CCNC(=S)N/N=C/c1cccc([N+](=O)[O-])c1	1	/	19%	17%	3%	-2	-1.1
Cn1cnnc1Sc1nc2ccccc2nc1NS(=O)(=O)c1ccccc1	11	-12%	11%	1%	7%	-12	0.2
Cc1[nH]c2ccccc2c1C(=O)COC(=O)C1CCC(=O)N1 (stereo unspecified)	14	-1.2%	?	10%	-4%	-6	-0.3
Cc1cc(/C=N/NC(=O)c2cccc(F)c2)c(C)n1-c1ccccc1	-8	-11%	26%	6%	-26%	-17	3.3
O=C(N/N=C/c1cn[nH]c1-c1ccc(F)cc1)c1ccncc1	-13	0.1%	-17%[15.4 µM]	18%	6%	-2	1.7
CC(C)Cn1c(N)c(C(=O)COC(=O)c2cccn2C)c(=O)n(C)c1=O	/	-2.3%	1%	/	-29%	-1	/
CCc1c(C2(O)CCCCC2)[nH]c2ccc(C(=O)OC)cc12	/	-9.0%	/	/	-10%	-9	/
Nc1ccc(C(=O)OCC(=O)N2CCOCC2)cc1[N+](=O)[O-]	-3	3.1%	0%	?	-5%	-2	-0.3
O=C(CSc1nnc(-c2ccc(F)cc2)o1)N1CCN(C(=O)c2ccco2)CC1	19	-1.7%	-33%[inhibitor]	10%	-5%	9	-1.8
CC(C)c1ccc(S(=O)(=O)N2CCN(C(=O)c3ccncc3)CC2)cc1	-1	-1.9%	-20%	/	0%	-2	/
Cc1ccc(NC(=O)Nc2ccc3c(c2)C(=O)OC3)cc1Cl	6	0.9%	7%	4%	4%	-21	4.4
O=C(CCN1C(=O)c2cccc3cccc(c23)C1=O)N1CCN(Cc2ccc3c(c2)OCO3)CC1	-4	?	8%	11%	-18%	-13	5.5
CCOC(=O)c1ccc(OCC(=O)c2ccc(O)cc2O)cc1	-6	0.1%	0%	-6%	?	-15	2.2
COc1ccccc1N(C)S(=O)(=O)c1ccc(C(=O)OCC(=O)Nc2ccc(C(N)=O)cc2)cc1	0	-0.3%	-5%	/	3%	-8	/
COc1cccc(CC2(CO)CCCN(Cc3c(C)cc(C)cc3-n3cccn3)C2)c1 (stereo unspecified)	-8	-13%	-123%[inhibitor]	2%	1%	-6	8.3
Cc1ccc(C(=O)NCCNC(=O)COc2ccccc2Cl)cn1	5	/	0%[15.4 µM]	14%	4%	-1	1.4
O=C(NCc1cccc(F)c1)c1cccc2c1C(=O)c1ccc(N3CCOCC3)cc1S2(=O)=O	/	3.1%	?	/	0%	-2	/
Cc1ccc(-c2ccc(/C=C3\SC(N4CCOCC4)=NC3=O)o2)cc1	-17	/	21%[15.4 µM]	40µM*	-37%	-2	?
O=C(Nc1cccc2ncccc12)c1cc(Br)ccc1Cl	-6	-9.1%	-2%[15.4 µM]	3%	3%	5	1.3
COc1ccc(/C(C)=N/OCC(=O)N=Nc2c(O)[nH]c3ccc(Br)cc23)cc1	1	1.1%	?	21%	-3%	-4	-2.9
COc1cc2[nH]c(-c3cccc(F)c3)cc(=O)c2cc1OC	15	4.3%	19%	17%	12%	-21	1.8
CC(=O)N(C)C1=C(N2CCOCC2)C(=O)c2ccccc2C1=O	3	5.7%	31%	5%	7%	?	-0.9
CC(C)CC1NC(=O)N(Cc2nc3ccccc3s2)C1=O (stereo unspecified)	5	/	-18%[15.4 µM]	12%	2%	-2	1.4
O=C(CN1c2ccccc2Sc2ccccc21)N/N=C/c1ccc(Cl)cc1	12	/	2%[15.4 µM]	24%	-8%	-2	4.8
CC(=O)Nc1cc2c(cc1Cl)-c1ccccc1C2	/	1.0%	-30%	/	11%	-11	/
COc1ccccc1-n1c(CCn2nc(C)c(Br)c2C)n[nH]c1=S	-14	-0.9%	?	?	2%	1	-1.9
CCOc1ccc(S(=O)(=O)N/N=C2/CC(c3ccccc3)Oc3ccccc32)cc1 (stereo unspecified)	8	1.2%	8%	14%	-4%	1	-4.9
CC(=O)Oc1ccc(-c2csc(Nc3ccc(Cl)cn3)n2)cc1	-3	-6.5%	-5%	13%	-10%	-1	0.9
Cc1ccc(S(=O)(=O)N2CCN(C(=O)c3cc4c(s3)CCCC4)CC2)c(C)c1	20	-1.4%	13%	/	?	-1	/
O=C(O)C(SC(C(=O)O)c1ccccc1)c1ccccc1 (stereo unspecified)	/	28µM*	-2%	/	-12%	3	/
O=C(Cn1cc2c(n1)CCCCC2)Nc1ccccc1Cl	21	/	1%[15.4 µM]	1%	7%	-2	0.3
CCCc1cc(=O)[nH]c2nnc(SCC(=O)Nc3nccs3)n12	-7	/	-14%[15.4 µM]	/	14%	-1	/
Cc1c(Br)ccc(NC(=O)c2ccccc2[N+](=O)[O-])c1C	-20	-1.3%	-62%[inhibitor]	16%	6%	-7	-3.1
CCOC(=O)C1CCN(C(=O)c2cccc(N3C(=O)NC4CC3(C)Oc3ccc(C)cc34)c2)CC1 (stereo unspecified)	20	-0.9%	-38%	2%	-26%	-8	/
Cc1nc2ccc(Br)cc2c(=O)n1Cc1cccs1	/	0.2%	-40%[inhibitor]	/	-2%	-17	/
CC(C)c1ccc2oc(=O)cc(CN3CCN(Cc4ccccc4)CC3)c2c1	8	-3.0%	5%	13%	-10%	-6	0.6
COCCn1c(SCC(=O)Nc2cc(C)on2)nc2c([nH]c3ccccc32)c1=O	/	-13%	-17%	/	/	-11	/

(list continues)
compound	TRPV1 PAM	ClpP mod	gsp agonist	Sfp PPTase inh	gsp antag	D2 potentiator	Menin MLL FP FL
CCP(=O)(c1ccccc1)C(C)(C)O (stereo unspecified)	-7	16µM*	-55%[inhibitor]	15%	2%	14	-0.2
O=C(Nc1ccc(Br)cc1)c1cccc(N2C(=O)C3C4C=CC(C4)C3C2=O)c1 (stereo unspecified)	-9	-0.4%	?	14%	-18%	0	-1.8
COc1ccc(C(=O)C2CCCN(Cc3ccc4c(c3)OCCO4)C2)cc1F (stereo unspecified)	1	/	-17%[15.4 µM]	7%	4%	-6	1.1
CC(C)=CCc1c(-c2ccc(O)cc2O)oc2c3c(cc(O)c2c1=O)OC(C)(C)C=C3	/	-3.7%	-34%[inhibitor]	/	-12%	15	/
COc1cc(OC)cc(C(=O)N2CCN(Cc3ccccc3Br)CC2)c1	12	1.6%	2%	56µM*	8%	-8	1.5
O=C(Nc1ccc(Cl)cc1)ON=C1CCCC1	-27	0.4%	-6%	10%	7%	-8	-0.2
CSc1nccn1CC(=O)Nc1ccc(F)cc1	-1	-0.1%	1%	10%	4%	22	1.9
CC(O)C(=O)N/N=C/c1ccccc1C(=O)O (stereo unspecified)	2	/	-8%[15.4 µM]	20%	20%	-11	-1.7
